# MgrA-DNA mod – alters Staphylococcus aureus MgrA binding to DNA. fluorescence polarization. AID 602314. 0.13% of 84,000 active. inhibition, %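 (about 10 µg/mL by stock and volumes)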;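 active = above 50% in either of two replicates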;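 note: 0% = protein plus DNA without compound and 100% = DNA alone without protein; higher means less MgrA bound to DNA so lower polarization; one replicate is shown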
# S aureus helic – blocks Staphylococcus aureus DNA helicase | purified S. aureus helicase, fluorescence unwinding assay; about half of the hits fall short of the stated cut | inhibition, %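 (tested at about 80 µM)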 | 0.05% of 120,000 active | AID 485395;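 active = both duplicates at 50% or more, or one of them with a favoured structure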;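 note: 0% = mean of negative control wells and 100% = mean of positive control wells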
# Starred values were filed as active, the others as inactive; nt = not tested or not shown. The list is partial, so the mix of outcomes need not match the whole.
item	Structure	MgrA-DNA mod	S aureus helic
1	O=S(=O)(NC1CCCc2ccccc21)c1ccccc1 (stereo not drawn)	0.2	nt
2	NNC(=O)Cn1cc(Cl)c(=O)c(Cl)c1	-2.3	nt
3	CNC(=O)C1CCN(C(=O)N2CCOc3ccccc32)CC1	4.3	10
4	CC1=CCC(C(=O)O)(C(=O)NCc2ccccc2)C(c2ccc(Br)cc2)C1 (stereo not drawn)	-5.1	17
5	Cc1cc(S(=O)(=O)Nc2ccc3oc4c(c3c2)CC(C(C)(C)C)CC4)ccc1Cl (stereo not drawn)	2.2	4
6	CN(C)CCCOc1nn(Cc2ccccc2)c2ccccc12	-0.6	nt
7	O=C(Nc1ccc(S(=O)(=O)Nc2nccs2)cc1)c1sc2ccccc2c1Cl	-1.2	nt
8	NS(=O)(=O)c1ccc(NC(=O)CC2(CC(=O)O)CCCC2)cc1	-3.5	nt
9	Cc1c(C(=O)OC(C)C#N)oc2c1ccc1ccccc12 (stereo not drawn)	nt	2
10	Cc1ccc(NC(=S)Nc2ccccn2)cc1C	-0.7	nt
11	CCS(=O)(=O)N1CCC(c2nc(-c3ccc(C)cc3)no2)CC1	0.0	1
12	CC1CCCCC1n1cnc2cc(C(=O)O)ccc21 (stereo not drawn)	nt	7
13	CC(C)(Oc1ccccc1Cl)C(=O)O	-3.1	4
14	Cc1ccc2c(c1)NC(CCC(=O)N1CCN(c3cc(Cl)ccc3C)CC1)=NS2(=O)=O	nt	11
15	CC(C)(C)C(=O)NC(c1ccc(Cl)cc1)c1nnc(-c2ccccc2)o1 (stereo not drawn)	nt	1
16	CC(=O)OCC(=O)Nc1nc2c(C)cc(C)cc2s1	nt	-14
17	OCCN(CCO)c1ncnc2sc3c(c12)CCCC3	nt	-16
18	O=S(=O)(Cc1noc(-c2ccc(OC(F)(F)F)cc2)n1)c1ccc(F)cc1	-0.4	nt
19	O=c1c(=S)[nH]ccn1-c1ccccc1	nt	23
20	COC(CN=C1COc2cccnc2N1)OC	0.8	1
21	CCCCCn1c(SC(C)C(N)=O)nc2ccccc21 (stereo not drawn)	nt	-11
22	Cc1cccc(N2CCN(C(=O)c3ccc4c(=O)[nH]c5c(C(=O)NC(C)C)sc(=S)n5c4c3)CC2)c1C	nt	7
23	COc1ccc(/C=C2/SC(=S)N(CC(=O)Nc3ccc(F)c(Cl)c3)C2=O)cc1OC	0.5	nt
24	O=S(=O)(c1ccc2oc(SCc3ccccc3C(F)(F)F)nc2c1)N1CCCCC1	nt	-1
25	O=C(c1ccc(=O)n(Cc2ccccc2)n1)N1CCN(c2ccccc2)CC1	nt	7
26	CCc1ccc(N=c2oc3c(C)ncc(CO)c3cc2C(N)=O)cc1	-1.1	-1
27	O=C1NN(c2ccccc2)C(=O)/C1=C/c1ccc(SC2CCCCC2)o1	6.3	22
28	Nc1c2c(nc3ccccc13)N(C1CCCCC1)CC2	-1.2	4
29	CSc1nnnn1-c1ccc(S(=O)(=O)N(C)C)cc1	-1.4	20
30	Cc1nc(SCN2C(=O)c3ccccc3C2=O)n[nH]1	nt	-11
31	Cc1ccc(SCc2nc3ccccc3[nH]2)cc1	-0.2	nt
32	CCOC(=O)c1c(C)[nH]c(C)c1C(=O)COC(=O)c1cccc(S(=O)(=O)NC)c1	nt	-9
33	COCCn1cc(C(=O)N2CCC(C)CC2)c2c3ccccc3n(C)c2c1=O	0.6	11
34	O=C1/C(=C\O)CCc2occc21	nt	22
35	O=C(On1c(-c2ccccc2)nc2ccccc2c1=O)c1ccccc1Cl	1.1	nt
36	Nc1nccnc1C(=O)OCc1cc(=O)oc2ccc3ccccc3c12	nt	8
37	COC(=O)C1=C(C)N=C2SCC(=O)N2C1c1ccccc1 (stereo not drawn)	nt	5
38	Cc1cc(C2=NNC(=NC3CC3)SC2)c(C)n1Cc1ccco1	nt	-2
39	C=C1N(c2ccccc2)C(=O)OC1(C)C	nt	28
40	Cc1nccn1CC(O)Cn1c2ccc(Br)cc2c2cc(Br)ccc21 (stereo not drawn)	1.4	-2
41	Cc1ccc(C(=O)N(Cc2nc(-c3ccc(C)cc3)no2)C(C)C)cc1	nt	8
42	N#Cc1c(Cl)cccc1NCc1cccs1	4.0	nt
43	COC(=O)c1n[nH]c2c1CCC2	nt	4
44	c1ccc2c(c1)OC1OC2Oc2ccccc21	0.0	-7
45	N=C1N=C2N=CC=CN2Cc2ccccc21	nt	-2
46	O=S(=O)(NCC(c1ccccc1)n1cc(-c2ccccc2)nn1)c1ccc(Cl)cc1 (stereo not drawn)	-1.1	5
47	CCC(C)n1ncn(-c2ccc(N3CCN(c4ccc(OC)cc4)CC3)cc2)c1=O (stereo not drawn)	1.0	-2
48	Cc1ccc(-[n+]2cc(NC(=O)/C(C#N)=C/c3ccccc3)on2)cc1	nt	12

# Rewritten as labelled records: part of the list above
43: COC(=O)c1n[nH]c2c1CCC2
  MgrA-DNA mod = nt | S aureus helic = 4

47: CCC(C)n1ncn(-c2ccc(N3CCN(c4ccc(OC)cc4)CC3)cc2)c1=O (stereo not drawn)
  MgrA-DNA mod = 1.0 | S aureus helic = -2

45: N=C1N=C2N=CC=CN2Cc2ccccc21
  MgrA-DNA mod = nt | S aureus helic = -2

# Next part.
item	Structure	MgrA-DNA mod	S aureus helic
49	c1ccc(CN2CCCC2)nc1	-30	5
50	CC(C)CSc1nnc(-c2nn(Cc3ccccc3)c(=O)c3ccccc23)o1	nt	7
51	OC(CNc1ncnc2sccc12)c1ccccc1 (stereo not drawn)	nt	-1
52	NNC(=S)c1cc(Cl)cc(Cl)c1	-1.6	nt
53	COc1ccccc1Nc1nc(-c2ccccc2)cs1	0.8	-10
54	CCOc1cccc2sc(NC(C)=O)nc12	nt	5
55	COCc1cc(=O)n(-c2ccccc2)[nH]1	-0.6	nt
56	CC(C)(CN)C12CC3CC(CC(C3)C1)C2	1.5	6
57	COc1cnc2c(n1)c(=O)n(C)c(=O)n2C	nt	7
58	CC(C)(C)NC(=O)c1ccccc1-c1nc(-c2ccccc2)no1	0.4	4
59	O=C(Nc1ccccc1C(=O)Nc1cccc(C(F)(F)F)c1)c1ccccc1	-0.6	nt
60	CC(=O)Oc1ccc2nc(-c3ccccc3)oc(=O)c2c1	nt	-10
61	CCOC(=O)CCSc1nc(C)cc(C(F)(F)F)c1C#N	0.3	-5
62	Nc1nc(C(F)(F)F)nn1C(=O)c1ccc(Br)cc1	nt	-8
63	Cc1noc(C)c1S(=O)(=O)N1CCCC1c1ccc2c(c1)OCCCO2 (stereo not drawn)	nt	5
64	Cc1ccc(C(C)C)cc1S(=O)(=O)NCc1ccccn1	nt	-7
65	CCCNC(=O)Nc1ccccc1N1CCCCC1	nt	6
66	COC(=O)C1(C(F)(F)F)N=C2C=CC=CN2C(c2ccco2)=N1 (stereo not drawn)	nt	-11
67	O=C(NC1CCCCC1)NC(c1ccc(Cl)cc1)c1nnc(-c2ccccc2)o1 (stereo not drawn)	nt	-4
68	CC1=CC(=C(C#N)c2nc3ccccc3s2)C=C(C)N1Cc1ccco1	nt	-60
69	C=CCNc1nc2ccccn2c(=O)c1/C=C1\SC(=S)N(CCOC)C1=O	nt	-87
70	Nc1ncc(Cc2cccc3ccccc23)s1	0.6	-17
71	Cc1nn(C)c(C)c1[N+](=O)[O-]	-0.2	nt
72	CC(C)[C@H](NS(=O)(=O)c1ccc2c(c1)OCCO2)C(=O)N=c1sc2ccccc2n1C	nt	-5
73	CCCN1CCN(C(=O)Cn2ncc3c4ccccc4n(Cc4c(C)cc(C)cc4C)c3c2=O)CC1	nt	34
74	NS(=O)(=O)c1ccc(CCn2c(=S)[nH]c3c(sc4ccccc43)c2=O)cc1	6.2	5
75	CC(=O)N1CCN(C(=O)/C(=C/c2ccc(F)cc2)c2ccsc2)CC1	0.0	3
76	Cc1ccc(Cn2nnc3c(=O)n(CC(N)=O)cnc32)cc1	1.8	8
77	Cc1ccc(C)c(N2CCN(C(=O)C3CCN(c4ccc(N5CCOCC5)nn4)CC3)CC2)c1	-1.2	11
78	O=C(O)c1csc2c1CCCCC2	-0.3	9
79	CC(N)c1ccc2c(c1)OCCO2 (stereo not drawn)	0.0	6
80	CC(=O)Nc1ccc(C(=O)CSc2nnc(C)o2)cc1	-4.2	-4

# One compound at a time, from the list above.
# Results for CC(=O)N1CCN(C(=O)/C(=C/c2ccc(F)cc2)c2ccsc2)CC1 : MgrA-DNA mod: 0.0; S aureus helic: 3
# Results for CC(=O)Nc1ccc(C(=O)CSc2nnc(C)o2)cc1 : MgrA-DNA mod: -4.2; S aureus helic: -4

# Remaining list, next part:
item	Structure	MgrA-DNA mod	S aureus helic
81	CC(C)(C)c1cc(O)c2oc(=O)c(-c3nc(-c4ccccc4F)no3)cc2c1	nt	1
82	CC1CCN(C(=O)c2ccc3c(c2)N(C)CCS3)CC1	nt	20
83	COc1ccccc1C1CC(c2ccc(Br)cc2)=NN1CN1C(=O)C(=O)c2ccccc21 (stereo not drawn)	-0.6	nt
84	COc1ccc2c(C)c(CC(=O)NCc3ccccc3)c(=O)oc2c1	nt	-10
85	O=C(Nc1ccccc1-c1nc2ccccc2[nH]1)c1cccs1	nt	18
86	O=C(Nc1cccc(N=Cc2ccccc2O)c1)c1ccccc1O	-2.2	nt
87	CC(=O)Nc1nc(CN2CCN(Cc3nc4ccccc4s3)CC2)cs1	nt	-8
88	C=CCn1c(=O)c2ccccc2n2c(SC(C)c3nnc(-c4cccs4)o3)nnc12 (stereo not drawn)	nt	16
89	O=c1c2ccccc2cnn1CCOc1ccccc1	nt	13
90	O=C(C1CCN(Cc2cnn(-c3ccccc3)c2-n2cccc2)CC1)N1CCC2(CC1)OCCO2	nt	16
91	CN1C(=O)c2ccccc2C(C(=O)O)C1c1cccs1 (stereo not drawn)	nt	-1
92	CCOC(=O)c1cnc2c(C)c(Cl)ccc2c1N1CCOCC1	nt	15
93	CCSc1nnc(C)c2ccccc12	-1.1	0
94	COCC(C)NC(=O)c1ccccc1NS(C)(=O)=O (stereo not drawn)	-0.5	0
95	CC(CCc1ccccc1)NC(=O)CSc1ccccc1Cl (stereo not drawn)	-0.9	19
96	Cc1sc2nc(SCC(=O)c3ccc(O)cc3O)[nH]c(=O)c2c1C	nt	9
97	COc1ccc(/C=N/n2c(=O)c3c(ncn3/N=C/c3ccc(OC)cc3)n(C)c2=O)cc1	-0.8	12
98	Cc1[nH]c2ccc(-c3nnc(SCCC#N)n3C)cc2c1C	-7.0	6
99	CCOc1ccc(Nc2nc(Nc3ccc(OCC)cc3)nc(SC3=NCCS3)n2)cc1	3.1	12
100	COc1ccccc1/C=C1\N=C(c2ccccc2)OC1=O	2.7	nt
101	O=C(NCc1ccccc1)c1cnn(-c2ccccc2)c1-n1cccc1	-2.1	5
102	CCn1cc(C=C2C(=O)OC(C)(C(C)(C)C)OC2=O)c2ccccc21 (stereo not drawn)	1.7	5
103	C/C(CSC(=O)c1c(-c2c(F)cccc2Cl)noc1C)=N\O	0.3	nt
104	COc1cccc(-n2cc(C(=O)NCCc3ccc(S(N)(=O)=O)cc3)c3ccccc3c2=O)c1	-1.4	1
105	c1ccc(-c2onc3ccc(C4OCCO4)cc23)cc1	-1.9	nt
106	CC(C)(C)c1cc(N)n(-c2ccc(C(=O)O)cc2)n1	nt	1
107	Cc1ccc(SC(=O)c2csnn2)cc1	3.5	nt
108	O=C(CCc1ccccc1)N1CCC(c2ccccc2)C1 (stereo not drawn)	nt	3
109	COc1ccc(C2=NOC(C(=O)NCC(C)C)C2)cc1 (stereo not drawn)	nt	-1
110	COc1cccc(-c2cc(C(=O)Nc3cccc(O)c3)no2)c1	nt	4
111	Cc1cccc(C(CC(=O)Nc2nc(C)cs2)n2cccc2)c1 (stereo not drawn)	nt	8
112	N#C/C(=C\Nc1ccc(Cl)cn1)S(=O)(=O)c1ccc(Cl)cc1	4.8	nt
113	Cn1ncc2c(N(CCO)Cc3ccccc3)ncnc21	nt	-2
114	CCCc1c(C#N)c(N)nc(SCCCN2CCN(c3cccc(Cl)c3)CC2)c1C#N	-1.4	9
115	CCC(=O)O[C@H]1[C@H](O[C@@H]2[C@@H](C)[C@H](O[C@H]3C[C@@](C)(OC)[C@@H](O)[C@H](C)O3)[C@@H](C)C(=O)O[C@H](CC)[C@@](C)(O)[C@H](O)[C@@H](C)C(=O)[C@H](C)C[C@@]2(C)O)O[C@H](C)C[C@@H]1N(C)C	0.9	nt
116	COc1ccc2ccc(OCC(=O)NCC(F)(F)F)cc2c1	nt	3
117	CCn1c(COC(=O)c2ccccc2)nc2cc(S(=O)(=O)N(C)C)ccc21	nt	-4
118	CN1C(=O)/C(=C2\SC(=S)N(c3ccc(O)cc3)C2=O)c2ccccc21	nt	-24
119	CC(C)c1ccc(-c2noc(C3CCCN(S(=O)(=O)c4ccccc4)C3)n2)cc1 (stereo not drawn)	-0.8	4
120	S=C1COC(c2ccc(Br)cc2)N1c1ccccc1 (stereo not drawn)	0.7	0
121	CCC(=O)N(c1nnc(SCC(=O)c2cc(C)n(C)c2C)s1)C1CC1	nt	11
122	O=C(COC(=O)Cc1ccc(F)cc1)NCc1ccco1	-0.2	-2
123	Cc1cc(NC(=O)c2ccc(C)s2)n(-c2nc3ccccc3n2Cc2ccccc2F)n1	nt	-15
124	CCOC(=O)c1ccccc1S(N)(=O)=O	nt	-12
125	CC(C)c1ccc(-c2nnn(CC(=O)OC3CCCCC3)n2)cc1	-2.4	6
126	O=C(COC(=O)c1ccccc1-n1cnnn1)c1ccccc1	nt	-6
127	CC1CN(C(=N)c2ccc(Cl)cc2)CC(C)O1 (stereo not drawn)	-2.9	nt
128	O=C(Cc1ccc(S(=O)(=O)N2CCCC2)s1)Nc1ccc(-c2nnc3n2CCCCC3)cc1	nt	10
129	S=C(N=P(N1CCOCC1)(N1CCOCC1)C12CC3CC(CC(C3)C1)C2)N1CCCC1	nt	-18

# Screening results (PubChem)
